# RGS16-Gao = regulators of human RGS16-Galphao interaction | binding response (% of control), % at 10 µM | bead-based flow cytometry RGS16-Galphao binding, fluorescence; actives lie on both sides | O15492+P09471 | 220,000 tested, 0.38% active;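 active = below 25% or above 175%, edge rows of some plates excepted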;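 note: Galphao activated by GDP with aluminum fluoride before binding; 100% = wells without compound and 0% = beads without RGS; some results beyond the cut were filed as inactive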
# HSV augment = HSV replication enhancement; HSV replication augmentation in cells, fold increase; maximum fold increase; 220,000 tested, 0.005% active; AID 1956;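 active = peak rise of 1.5-fold or more in the series; tested in PC3 cells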;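 note: first round at 10 µM; read as green reporter fluorescence; hits show the peak of a series up to 25 µM; 1 = signal of infected wells without compound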
# PKD1 kinase inh = blocks activity of human protein kinase D1; Q15139; PKD1 kinase fluorescence polarization assay; inhibition, %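 (about 10 µM by stock and volumes)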; 200,000 tested, 0.056% active;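 active = inhibition of 50% or more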;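 note: controls were vehicle for no effect and a reference inhibitor for full effect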
# Target sequence (Q15139 whole entry, looked up): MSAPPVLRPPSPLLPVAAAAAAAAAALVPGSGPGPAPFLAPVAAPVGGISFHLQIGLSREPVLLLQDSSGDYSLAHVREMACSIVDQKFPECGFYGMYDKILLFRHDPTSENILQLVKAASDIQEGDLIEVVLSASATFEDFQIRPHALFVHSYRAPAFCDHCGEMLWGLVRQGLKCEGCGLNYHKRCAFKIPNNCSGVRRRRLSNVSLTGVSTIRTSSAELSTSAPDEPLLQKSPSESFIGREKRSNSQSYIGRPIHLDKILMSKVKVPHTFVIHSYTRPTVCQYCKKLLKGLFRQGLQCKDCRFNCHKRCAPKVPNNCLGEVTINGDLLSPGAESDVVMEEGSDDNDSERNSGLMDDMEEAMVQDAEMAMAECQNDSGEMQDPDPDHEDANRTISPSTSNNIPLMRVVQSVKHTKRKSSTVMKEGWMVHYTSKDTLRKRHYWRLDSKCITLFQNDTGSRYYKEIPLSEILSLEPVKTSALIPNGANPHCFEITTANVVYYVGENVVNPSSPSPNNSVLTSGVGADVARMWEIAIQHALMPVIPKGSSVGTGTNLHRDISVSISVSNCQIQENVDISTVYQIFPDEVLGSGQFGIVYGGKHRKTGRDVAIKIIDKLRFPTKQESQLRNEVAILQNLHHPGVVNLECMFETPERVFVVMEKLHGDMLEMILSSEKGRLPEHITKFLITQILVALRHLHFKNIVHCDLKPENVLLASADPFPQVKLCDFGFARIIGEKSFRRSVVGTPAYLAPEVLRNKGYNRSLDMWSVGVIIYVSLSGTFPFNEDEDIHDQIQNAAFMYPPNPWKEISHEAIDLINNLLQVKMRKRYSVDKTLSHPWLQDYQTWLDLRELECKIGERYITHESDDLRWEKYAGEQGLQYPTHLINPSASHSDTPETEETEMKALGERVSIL
# GALR2 ag = agonists of human galanin receptor 2 (GALR2) | AID 803 | GALR2-expressing cells, agonist activation read-out | O43603 | activation, %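 (tested at 5 µM)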 | 140,000 tested, 0.48% active;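 active = above mean plus 3 SD of all compounds, about 5% in these data, not always enough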;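 note: 0% = vehicle buffer wells and 100% = reference agonist at full effect; tested in CHO reporter cells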
# INS promoter inh = TRM-6 insulin promoter activity inhibition; TRM-6 cells (human fetal islet line), insulin promoter-eGFP reporter, imaging; reporter expression induced with tamoxifen; inhibition, % at 2 µM; 130,000 tested, 0.9% active; AID 1273;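 active = inhibition above the mean plus 3 SD, with well images judged a real hit on visual review, cut at about 60% in these data, passing the limit was not always enough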
# INS promoter inh cell count = further read-out of INS promoter inh, marked with its call; normalized cell count, %; measured here: cell count, toxicity; reference of the scale not given here;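 cells exposed to compound for 48 h; stained nuclei by imaging scaled within each plate; lower means fewer cells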
# HSV augment primary fold = also measured in HSV augment; calls as there; fold increase; compound at 10 µM; measured here: primary screen fold increase 10 uM; tested in PC3 cells;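 GFP signal in the first replicate; 1 = infected wells without compound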
# * hit, by the source's call; i = inactive; x = not tested or not shown.
# Values in the order – RGS16-Gao	HSV augment	HSV augment primary fold	PKD1 kinase inh	GALR2 ag	INS promoter inh	INS promoter inh cell count
Cc1nnc(-n2ncc(C#N)c2N)c2nn(-c3cccc(Cl)c3)c(C)c12
  105	i	0.73	-3	-2.5	19	212
Clc1ccc(-[n+]2c(-c3cccc(Br)c3)[nH]c3nc4ccccc4nc32)cc1
  112	i	1.1	x	x	x	x
Cc1ccc(C2CC(=O)C=C(Nc3ccc(Cl)cc3)C2)cc1 (centres undefined)
  99	i	0.91	-6	0.9	-15	115
Cc1cc(Cl)c2ccc(Cl)cc2n1
  100	i	1.1	x	x	x	x
CS(=O)(=O)N1CCN(C(=S)NCc2ccc(F)cc2)CC1
  67	i	1.1	-1	0.5	2	105
O=C(c1ccc(COc2ccc(Cl)cc2)o1)N1CCN(Cc2ccc3c(c2)OCO3)CC1
  129	i	0.97	-10	-1.1	48	163
Cc1cc(C)n(-c2cccc3cccnc23)n1
  96	i	0.99	-1	-1.6	-288	80
Cn1nc(C(C)(C)C)c([N+](=O)[O-])c1C(=O)Nc1cccc2ccccc12
  102	i	0.59	x	x	x	x
CC(=O)c1c(C)nc(-c2ccc(Cl)cc2)nc1N=CN(C)C
  108	i	0.97	-7	-3.0	-100	107
CC1(C)CC2(CCCN3C(=O)CSC32)CCS1 (centres undefined)
  102	i	1.1	-11	-2.0	23	88
Cc1ccc(OCCOCCn2cnc3ccccc3c2=O)c([N+](=O)[O-])c1
  107	i	0.88	-8	-1.4	-27	125
Cc1cccc(N2C(=O)N(c3ccccc3C)C3CS(=O)(=O)CC32)c1 (centres undefined)
  98	i	1.1	-5	-0.1	-21	160
Cc1cc(=O)n(-c2ccc(Cl)cc2)c(=O)[nH]1
  99	i	0.89	0	x	x	x
Cc1nn(Cc2c(F)c(F)c(F)c(F)c2F)c(C)c1NC(=O)c1c([N+](=O)[O-])cnn1C
  103	i	1.1	-3	-0.3	-4	121
Cc1ccccc1NC(=O)CC1SC(=O)N(c2ccccc2)C1=O (centres undefined)
  98	i	1	-7	-1.7	-14	106
Cc1cc(C)cc(N(CC(=O)N2CCC(C)CC2)S(C)(=O)=O)c1
  95	i	1	-17	-1.6	44	198
c1ccc(-c2csc(N3CCc4ccccc4C3)n2)cc1
  102	i	1.1	-6	-3.2	-23	111
CCOCCCN(Cc1ccco1)C(=O)c1cc2c(=O)[nH]c3ccc(C)cc3c2s1
  108	i	0.57	-4	1.6	x	x
CC1CCN(c2ccc(NC(=O)Cc3ccccc3)cc2)CC1
  101	i	1.2	2	x	x	x
S=C(Nc1ccccc1)Nn1cnnc1
  79	i	1.1	0	-1.2	-32	32
Cc1ccc(S(=O)(=O)CCc2nc3ccccc3[nH]2)cc1
  97	i	0.87	-1	x	x	x
CC(Oc1ccc(Cl)cc1Cl)C(=O)Nc1ccc(OCC(=O)O)cc1 (centres undefined)
  100	i	1.1	2	x	x	x
CCOC(=O)Nc1ccccc1C(=O)N1CCOCC1
  101	i	1	-5	-5.1	x	x
O=C(OCC(=O)N1CCCC1)c1ccc(S(=O)(=O)Nc2ccccc2)cc1
  104	i	1	6	x	x	x
O=C(Oc1ccccc1C(=S)N1CCCCC1)c1cc([N+](=O)[O-])cc([N+](=O)[O-])c1
  88	i	0.97	-3	-1.5	69	170
COC(=O)c1ccccc1NC(=S)NC(=O)C1CCCCC1
  101	x	x	4	-0.5	31	128
COc1ccc(-n2c3c(cc(C(=O)N4CCCCC4)c2=O)C(=O)CC(C)(C)C3)cc1
  105	i	1	-8	-2.0	10	159
CCOC(=O)/C=C/C(=O)OCC(=O)NCc1ccccc1
  82	i	1	-14	-1.5	29	146
NS(=O)(=O)c1ccc(NC(=O)CSc2nc3ccccc3[nH]2)cc1
  108	i	0.93	-7	x	-28	113
CC(C)NC(=O)N1CCOCCOCCN(C(=O)NC(C)C)CCOCCOCC1
  106	i	0.85	-11	-1.6	x	x
Cc1ccc(Cl)c(OC(=O)Cn2cnc3c2c(=O)n(C)c(=O)n3C)c1
  87	i	0.73	-2	x	x	x
CCOc1cccc(/C=N/NC(=S)Nc2ccccc2[N+](=O)[O-])c1O
  95	i	1.2	4	x	28	112
Cc1nn(CC(O)CN2c3ccccc3Sc3ccccc32)c(C)c1Br (centres undefined)
  103	i	0.85	-3	-3.0	-28	117
COc1ccc(N(CC(=O)NC(C)(C)C)C(=O)c2ccco2)cc1
  95	i	0.83	-2	-1.8	x	x
C=CCNC(=S)N/N=C(\C)c1cccnc1
  111	i	0.98	-12	x	-57	135
c1ccc2c(c1)nnn2-c1ncnc2sccc12
  104	i	0.93	-9	x	22	131
CS(=O)(=O)N(CC(=O)N1CCCC1)Cc1ccccc1
  94	i	0.89	-2	x	x	x
Cc1cc(/C=C(\C#N)C(=O)OCC(=O)Nc2ccc(OC(F)F)cc2)c(C)n1CC(C)C
  98	i	1	2	-0.5	30	108
COc1cc(CN(CCc2c(C)[nH]c3ccc(C)cc23)C(=S)NC(C)(C)C)cc(OC)c1OC
  x	x	x	0	0.0	14	114
COc1cc(/C=N\NC(=O)C2CC3C=CC2C3)ccc1O (centres undefined)
  114	i	1	4	-0.1	38	68
Cc1cc(S(=O)(=O)N(Cc2ccccc2)Cc2ccc(N(C)C)cc2)ccc1-n1cnnn1
  107	i	0.79	-6	-1.3	11	103
COc1ccc(N=Cc2c(O)[nH]c3ccccc23)cc1OC
  106	i	0.67	15	-0.2	8	79
COC(=O)CN(c1nc(C)cc(OC)n1)S(=O)(=O)c1ccccc1
  103	i	0.95	-4	-2.5	-44	120
COc1ccc(C(=O)N2CCc3c([nH]c4ccccc34)C2C(F)(F)F)cc1 (centres undefined)
  111	i	0.96	x	x	x	x
COC(=O)c1sc2nc(C)cc(-c3ccccc3)c2c1N
  103	i	0.95	7	1.1	x	x
CCOP(=O)(c1c(F)c(F)c(F)c(F)c1F)C1(O)CCCCC1 (centres undefined)
  94	i	0.92	3	-0.6	6	114
CSc1ccc(CN2CCN(C3CCCC3)C(CCO)C2)cc1 (centres undefined)
  79	i	1	-4	x	x	x
COCCN(C(=S)Nc1c(C)cccc1C)C(C)c1ccco1 (centres undefined)
  99	i	0.97	x	x	x	x
Cc1ccc(-c2nnc(-n3nc(C)cc3C)c3ccccc23)cc1
  100	i	1	0	-0.6	-10	79
Cc1noc(/C=C/N(C)C)c1S(=O)(=O)N1CCCC(C(=O)NC2CCCCC2)C1 (centres undefined)
  104	i	0.87	-15	-0.8	x	x

# Next part.
# Values in the order – RGS16-Gao	HSV augment	HSV augment primary fold	PKD1 kinase inh	GALR2 ag	INS promoter inh	INS promoter inh cell count
CCOC(=O)CCSc1nc(-c2ccc3c(c2)OCO3)cc(C(F)(F)F)c1C#N
  107	i	1.2	-7	-1.5	45	129
CSCC[C@H](NC(=O)Nc1ccc(S(N)(=O)=O)cc1)C(=O)O
  100	i	1.1	x	x	x	x
CCC1CCCCN1C(=O)CSc1nc2ccsc2c(=O)n1Cc1ccccc1 (centres undefined)
  105	i	0.84	-2	-1.4	-13	87
OCCNc1nc2ccccc2[nH]1
  100	i	1	-1	-3.6	-51	116
O=C(NC1CCc2ccccc21)c1cc(COc2ccc(F)cc2Cl)on1 (centres undefined)
  100	i	1	1	x	x	x
O=C(NC1CCCC1)C(c1ccsc1)N(C(=O)Cc1cccs1)c1ccc(F)cc1 (centres undefined)
  25	i	1.2	0	-1.6	23	58
CCOc1cc2c(Cl)ncnc2c(OCC)c1OCC
  96	i	0.98	x	x	x	x
O=C(c1cccc(Cl)c1)C1CCCN(C(=O)c2ccoc2)C1 (centres undefined)
  96	i	0.94	-6	x	x	x
Cc1c(NS(=O)(=O)c2ccc(Cl)c(C(=O)OC(C)C(=O)N3CCOCC3)c2)c(=O)n(-c2ccccc2)n1C (centres undefined)
  104	i	1	-8	x	-13	96
CCOC(=O)NCCc1ccc(OC)cc1
  110	i	1.1	-9	-0.7	-9	76
CCOC(=O)c1oc2ccccc2c1NC(=O)Cc1cccs1
  100	i	1.1	-9	-1.3	29	106
Cc1ccc(NC(=O)CC2Oc3ccc(C)cc3NC2=O)cc1 (centres undefined)
  102	i	1.1	-10	-2.0	x	x
c1ccc(-c2noc(CN3CCN(C(c4ccccc4)c4ccccc4)CC3)n2)cc1
  100	i	1.1	0	-3.5	-14	175
O=C(c1ccc2c(c1)N(Cc1ccc(F)cc1)C(=O)CS2)N1CCOCC1
  101	i	0.84	3	-0.2	17	115
CCN(CC(=O)Nc1c(F)cccc1F)C(=O)Cc1ccccc1
  97	i	0.71	-1	x	x	x
Cc1c(Cc2ccccc2)sc(/N=C/c2ccc3ccccc3c2)c1C(N)=O
  102	i	0.92	-7	-1.9	4	90
COc1cc(-c2nnc(COc3ccc4ccccc4c3)o2)cc(OC)c1OC
  102	x	x	-4	-0.1	-53	117
CCCCOC(=O)/C=C/c1c(C)[nH]c(=O)[nH]c1=O
  102	i	1.1	13	-1.1	21	116
Cc1nc2ccccc2c(=O)n1CCCO
  100	i	0.96	-1	0.6	x	x
Cc1cc(C)cc(NC(=O)C2CCCN(S(=O)(=O)c3cnc[nH]3)C2)c1 (centres undefined)
  93	i	0.9	-16	-2.3	x	x
O=C(Nc1ccc(-c2csc(-c3ccccc3)n2)cc1)c1ccccc1Cl
  99	i	0.77	-5	-2.0	-3	137
CCOC(=O)N1CCC(NC(=O)CS(=O)(=O)Cc2nc(-c3ccccc3C)oc2C)CC1
  104	i	0.95	-15	-0.7	x	x
CC(Oc1ccccc1)c1ccn[nH]1 (centres undefined)
  99	i	0.97	0	x	x	x
O=[N+]([O-])c1ccc(N2CCN(c3ccccc3O)CC2)c(Cl)c1
  108	i	0.93	-5	-0.2	-3	109
Nc1c(N2CCOCC2)cc(Cl)c2nonc12
  90	i	0.81	7	0.0	x	x
COc1ccc2nc(NC(=O)C3CCN(S(=O)(=O)c4cccs4)CC3)sc2c1
  112	i	1.1	-2	-0.5	-42	53
CC12CCC(C(=O)Nc3ccccc3-n3cccc3)(CC1=O)C2(C)C (centres undefined)
  103	i	1	-8	0.5	x	x
Cc1ccc(S(=O)(=O)Nc2ccc(NC(=O)c3c(F)c(F)c(F)c(F)c3F)cc2)cc1
  102	i	0.73	10	x	42	104
CCC(C)Cn1c(C)nc2ccccc21 (centres undefined)
  105	i	1.1	-7	-2.0	26	106
CCOC(=O)CC(=O)Nc1ccn[nH]1
  109	i	1	x	x	x	x
c1ccc2c(c1)OCC(c1csc3ncnc(N4CCOCC4)c13)O2 (centres undefined)
  91	i	0.93	-1	0.3	21	104
COc1ccc(/C(C)=N/OCC(=O)Nc2nc3ccccc3s2)cc1
  101	i	0.97	-5	-0.1	-48	97
O=C(NCc1cccnc1)C1CCN(S(=O)(=O)N2CCOCC2)CC1
  108	i	0.72	-16	-2.9	x	x
CC(C)N(Cc1nc2ccccc2[nH]1)C(C)C
  102	i	0.92	-4	-0.3	x	x
COC(=O)c1cc2sccc2n1Cc1nc(-c2cccc(Cl)c2)oc1C
  80	i	0.77	-2	-1.1	x	x
Cc1ccc(S(=O)(=O)N(C)Cc2ccc(C(=O)N/N=C/c3ccc(OC(F)F)cc3)cc2)cc1
  33	i	0.73	3	3.3	13	103
CCOC(=O)C1C(=O)Oc2ccc3ccccc3c2C1C1CCOC1=O (centres undefined)
  92	i	0.87	-3	-2.5	x	x
O=C(c1cn[nH]c1)N1CCc2c([nH]c3ccccc23)C1c1c(F)cccc1Cl (centres undefined)
  104	i	0.84	3	x	-136	88
N#C/C(=C\c1c[nH]c2ccccc12)C(=O)NCC1CCCO1 (centres undefined)
  115	i	0.96	-3	x	x	x
